High-throughput results as filed in PubChem BioAssay.
hNpr1 antagonist = Natriuretic polypeptide receptor (hNpr1) antagonism - Primary qHTS. HEK293 hNpr1 GloSensor cGMP, ANP-stimulated luminescence. Potency, µM (highest dose often 46.3 µM), inactives show top-dose activity change, negative = inhibition, usual class: inhibitors. actives 1.6% (n = 76,000); active = well fitted inhibition curve with a large enough effect; inconclusive = small, poorly fitted or top-dose-only effect; inactive = no such curve, though single readings can be large or run the other way;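 note: nearly all actives have a fitted effect of over 60% in size; nearly all hits also lower the signal before the agonist is added; a reference antagonist and vehicle were the controls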
Target sequence (P16066 whole entry, looked up): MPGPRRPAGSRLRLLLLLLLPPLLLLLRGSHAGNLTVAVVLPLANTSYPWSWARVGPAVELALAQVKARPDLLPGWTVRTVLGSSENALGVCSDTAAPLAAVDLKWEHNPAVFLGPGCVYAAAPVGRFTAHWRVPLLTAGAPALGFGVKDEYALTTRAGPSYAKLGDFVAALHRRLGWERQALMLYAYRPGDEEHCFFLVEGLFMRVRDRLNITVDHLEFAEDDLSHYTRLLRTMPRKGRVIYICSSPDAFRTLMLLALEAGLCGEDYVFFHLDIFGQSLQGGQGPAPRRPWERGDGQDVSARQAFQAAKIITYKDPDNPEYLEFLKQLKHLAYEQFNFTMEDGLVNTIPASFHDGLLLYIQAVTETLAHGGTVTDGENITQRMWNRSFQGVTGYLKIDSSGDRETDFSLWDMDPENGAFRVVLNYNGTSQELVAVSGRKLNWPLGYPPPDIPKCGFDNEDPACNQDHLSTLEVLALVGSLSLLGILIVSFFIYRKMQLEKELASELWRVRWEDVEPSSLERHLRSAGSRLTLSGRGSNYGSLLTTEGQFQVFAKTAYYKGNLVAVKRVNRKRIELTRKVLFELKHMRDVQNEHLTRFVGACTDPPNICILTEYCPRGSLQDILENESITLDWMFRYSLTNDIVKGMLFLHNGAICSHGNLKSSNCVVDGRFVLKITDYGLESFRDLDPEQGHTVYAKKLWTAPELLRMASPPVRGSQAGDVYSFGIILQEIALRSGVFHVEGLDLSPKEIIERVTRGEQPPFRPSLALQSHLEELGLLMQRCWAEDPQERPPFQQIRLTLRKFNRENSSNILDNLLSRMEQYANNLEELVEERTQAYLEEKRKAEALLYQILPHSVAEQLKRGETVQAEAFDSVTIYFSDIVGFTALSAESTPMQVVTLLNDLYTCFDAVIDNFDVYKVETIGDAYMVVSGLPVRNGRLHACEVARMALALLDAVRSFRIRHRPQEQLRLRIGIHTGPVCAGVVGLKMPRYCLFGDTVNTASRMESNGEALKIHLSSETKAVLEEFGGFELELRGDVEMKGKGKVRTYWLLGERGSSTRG
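Compound pre-incubated 30 min at room temperature on GloSensor-loaded HEK293 cells stably carrying hNpr1 and the pGS-40F cGMP biosensor. Stimulation uses hNppA at 0.1 nM final; luminescence is taken at baseline and 20 min post-agonist.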
Numbers without * were called inactive; ? = inconclusive; & = joins results of further samples; [ ] = remark or other dose. % is set by controls: 0 for no effect and ±100 for the full control effect; potency is the fitted concentration of half-maximal effect. Not all compounds are listed, so the mix of outcomes need not match the whole.

Start of the listing, in advance:
smiles	hNpr1 antagonist
CN1C(=O)COC[C@@H]1[C@H](O)c1ccc(NC(=O)Cc2ccccc2)cc1	-13%[70.6 µM]
CN1CC2(CCN(C(=O)NCCc3ccccc3)CC2)CC1C(=O)N1CCOCC1 (configuration not stated)	-10%
CC1(C)CNC(=O)c2nc(-c3n[nH]c4c3CCCCC4)[nH]c2C1	1%

The list itself, from the start:
smiles	hNpr1 antagonist
CN1C(=O)COC[C@@H]1[C@H](O)c1ccc(NC(=O)Cc2ccccc2)cc1	-13%[70.6 µM]
CN1CC2(CCN(C(=O)NCCc3ccccc3)CC2)CC1C(=O)N1CCOCC1 (configuration not stated)	-10%
CC1(C)CNC(=O)c2nc(-c3n[nH]c4c3CCCCC4)[nH]c2C1	1%
Cc1cc(C(=O)N2CC[C@H](NS(=O)(=O)c3cn(C)cn3)C[C@H]2C(=O)N[C@H](Cc2c[nH]c3ccccc23)C(N)=O)n(C)n1	3%
O=C(NCc1ccccc1)N1CCCC(c2noc(COc3ccccc3)n2)C1 (configuration not stated)	-1%
CC1(c2cccnc2)N(Cc2ccccc2)C(=O)OC12CCN(C(=O)Cc1ccc3c(c1)OCO3)CC2 (configuration not stated)	-1%
CC1(C)[C@H](Cc2cc(COc3ccccc3)on2)C[C@@H]1NC1CCOCC1	4%[70.6 µM]
O=C(Nc1cccn2nc(C3CCC3)nc12)c1cccc(C(F)(F)F)c1	-11%

Continued.
smiles	hNpr1 antagonist
O=C(c1ccc(F)cc1)N(CC1CCOC1)C1CC1 (configuration not stated)	5%
O=C(NCCN1CCOCC1)C1Cn2cccc2C(=O)N1Cc1ccccc1 (configuration not stated)	-7%
Cc1cc(C)n(-c2cccc(CN(C)C(=O)Cn3nnnc3CN3CCOCC3)c2)n1	-12%
COc1ccc(CCc2nc(-c3nnn4c3COC(c3ccc(C)cc3)C4)no2)cc1 (configuration not stated)	0%
COCCOCC(=O)N1CCOc2ccc(CN3CCc4ccccc4C3)cc2C1	3%
COc1ccccc1CNC(=O)c1cc2n(n1)CC(c1ccc(Cl)cc1)OC2 (configuration not stated)	?
Cc1noc(-c2cccc(OC3CN(C(=O)Cc4ccsc4)C3)c2)n1	-1%
CCNc1cc(N2CCC(CCC(=O)NCCc3ccccn3)CC2)ncn1	-8%

(continued)
smiles	hNpr1 antagonist
CCOCCOC1CCN(C(=O)NCc2ccc(OC)cc2)CC1	-11%
O=C(NCCCn1ccnc1)c1ccc2nc(-c3ccc(F)cc3)cn2c1	-2%
COCCN1C(=O)c2ccccc2C(C(=O)N2CCSCC2)C12CCCC2 (configuration not stated)	-10%
NCCC(=O)N1CCC(n2nccc2NC(=O)c2cccc(F)c2)CC1	6%
COc1ccc(C(=O)N2CC[C@@H]3CN(S(C)(=O)=O)[C@@H]3C2)c(OC)c1	2%
COCc1nncn1C1CCN(S(=O)(=O)c2cc(F)ccc2OC)CC1	3%
CN(C)C(=O)CCC(=O)N1CC[C@@](C)(O)[C@@H](Cc2ccccc2)C1	0%
O=C(N[C@@H]1CCC[C@@H]1C(=O)N1CCCCCC1)c1ccncc1	-8%

(listing goes on)
smiles	hNpr1 antagonist
COCCN1CC(C(=O)N2CCN(c3ncccc3C#N)CC2)CCC1=O (configuration not stated)	0%
Cc1cn(CC(=O)N2C[C@@H](NS(C)(=O)=O)[C@H](C(C)C)C2)c(=O)[nH]c1=O	0%
O=C(c1cc(F)ccc1Cl)N1CCC2(CC1)NC(=O)N(Cc1ccccc1)C2=O	-17%
CCN(CC)C(CNc1ncncn1)c1ccco1 (configuration not stated)	1%
CNC(=O)c1ccc2c(c1)NC(C)(CCCCc1ccccc1)CO2 (configuration not stated)	?
O=C(NCC1CCOCC1)c1ccsc1	-2%
CC(C)Oc1ccc2c(NC(=O)CN3CCCC3=O)nn(Cc3ccccc3)c2c1	11%
CC(C)(Oc1nn(CC2CC2)c2ccc(CN3CCCC3)cc12)C(=O)NC1CC1	-13%[70.6 µM]

(next part)
smiles	hNpr1 antagonist
O=C(NCc1ccco1)N1CC2CC(C1)[C@H]1CCCC(=O)N1C2 (some centres not stated)	-3%
Cc1ccc(C(=O)N2CCCC(n3cc(-c4noc(C)n4)nn3)C2)cc1 (configuration not stated)	1%
CN1C[C@H](C(=O)Nc2nccs2)C[C@H]1c1cccc(C(F)(F)F)c1	?
Cc1cc(C(=O)N2CC(F)(F)C[C@H]2c2nnc(C)o2)on1	0%
Cc1ccccc1-n1ncc(C(C)NC(=O)c2ccsc2)c1C (configuration not stated)	-15%
Cn1cc(CN2CCOC[C@H](Oc3ccc(S(C)(=O)=O)cc3)C2)c2ccccc21	6%[70.6 µM]
Cc1cccc(C(=O)N2CCCCCCNC(=O)[C@@H]3CCCC[C@@H]32)c1	-12%
CN1CCN(C(=O)c2ccc3c(c2)OCCO3)CC1=O	1%

(continued)
smiles	hNpr1 antagonist
COC(=O)[C@@H]1C[C@H](NC(=O)c2ccc(Oc3ccccc3)cc2)CN1C	-1%
c1ccc(CC2=NOC3(CCCN(Cc4ccns4)C3)C2)cc1 (configuration not stated)	-14%[70.6 µM]
Cn1cnnc1CC1CCCN(C(=O)C2CCCC2)C1 (configuration not stated)	-13%
CC(=O)NCC(=O)N1CC(F)(F)C[C@H]1c1nc(-c2ccccc2)no1	3%
Cc1ccsc1C(=O)N1CCC2(CCCCO2)CC1	-4%
COCc1nc(-c2ccc(OC3CCN(C(=O)NCc4ccc(F)cc4)C3)cc2)no1 (configuration not stated)	?
CC1(CNC(=O)c2ccsc2)CCOCC1	3%
Oc1ccccc1-c1cnc2n[nH]c(-c3ccc4c(c3)OCO4)c2n1	-19%[70.6 µM]

Quoted from the results shown, three compounds:
smiles	hNpr1 antagonist
CN1CCN(C(=O)c2ccc3c(c2)OCCO3)CC1=O	1%
COC(=O)[C@@H]1C[C@H](NC(=O)c2ccc(Oc3ccccc3)cc2)CN1C	-1%
c1ccc(CC2=NOC3(CCCN(Cc4ccns4)C3)C2)cc1 (configuration not stated)	-14%[70.6 µM]

New compounds follow
smiles	hNpr1 antagonist
COCCN(C)C(=O)c1ccc2c(c1)C1(CCN(C)C1)CN2CC1CC1 (configuration not stated)	0%[70.6 µM]
O=C(CC[C@@H]1CNC(=O)[C@@H]2C[C@H](NC(=O)Nc3ccccc3)CN12)Nc1ccccc1	-10%[70.6 µM]
Cn1cc(C(=O)N2CCC(OC3CCN(S(C)(=O)=O)CC3)CC2)cn1	3%
O=C(c1ccc2cc[nH]c2c1)N1CCC(c2noc(C3CC3)n2)C1 (configuration not stated)	-2%
COc1ccc(-c2[nH]ncc2CN2CC[C@H]3CC[C@@H](C2)N3)cc1	-2%
O=C(NCc1ccoc1)c1ccc2nc(-c3ccc(F)cc3)cn2c1	-6%
N#Cc1ccc(CN2CCCCCCNC(=O)CC2c2ccccc2)cc1 (configuration not stated)	-3%
COc1ccc(-n2nc(C)c([C@@H]3C=C[C@@H](NCc4ccccc4)C3)c2C)cc1	?

The listing continues:
smiles	hNpr1 antagonist
CCOc1ccccc1NC(=O)N1CCC(N2CC(OCCOC)C23CCCCC3)CC1 (configuration not stated)	2%
Cc1csc(NC(=O)c2ccc3c(c2)OCCN(CCC(F)(F)F)C3)n1	-9%[70.6 µM]
O=C(Cc1cccc(Cl)c1)NCc1nnc2ccc(-c3ccc(F)cc3)nn12	-4%
Cc1ccc(SC2CCN(C(=O)c3cn(CCc4ccccc4)nn3)CC2)cc1	-2%
CC(=O)N[C@@H]1CN(Cc2ccc(OC(C)C)cc2)C[C@H]1CO	-1%
Cc1ccc(C(N)=O)cc1-c1cc(NCc2cccnc2)nc2[nH]ccc12	-19%
Cc1cc(=O)n(CC(=O)Nc2cc(Cl)ccc2C)c(N2CCOCC2)n1	5%
CN(Cc1ccccc1)Cc1cc(C[C@H]2CNCC[C@H]2CC(=O)N2CCN(c3ccccn3)CC2)no1	4%

Other structures:
smiles	hNpr1 antagonist
O=C(NC1CCc2ccccc21)c1cc2n(n1)CC(c1ccc(Cl)cc1)OC2 (configuration not stated)	-5%
CC(C)CC(NC(=O)c1ccc(=O)[nH]c1)c1nnc2n1CCNCC2 (configuration not stated)	6%
CCCN(CC1CCOC1)C(=O)Nc1ccc(C)cc1C (configuration not stated)	0%
C[C@@H](NC(=O)Nc1cccnc1)c1onc(-c2ccc(F)cc2)c1C(=O)O	4%[70.6 µM]
CCn1nc(C)cc1C(=O)N1C[C@H]2OC(=O)N(CCCN3CCOCC3)[C@H]2C1	2%
COCCN(C)C[C@@H]1CN(C(=O)c2cc3ccccc3s2)C[C@@H]1CO	2%
Cc1nc(N2CCC(NC(=O)Cc3cccc(F)c3)CC2)cc(C(F)(F)F)n1	-8%
COc1ccc(CN2CCCC3(CC(Cc4ccccc4)=NO3)C2)cc1 (configuration not stated)	0%&0%

Additional structures.
smiles	hNpr1 antagonist
O=C(c1cc(-c2ccncc2)n[nH]1)N1CCC2(CC1)Nc1ccccc1NC2=O	-3%
Fc1ccc(C2Cn3nnc(-c4nc(-c5cccc(F)c5)no4)c3CO2)cc1 (configuration not stated)	1%
O=C(CSC12CC3CC(CC(C3)C1)C2)NCc1cc2n(n1)CCNC2	0%
Cc1ccccc1-c1cc(-c2c(C)noc2C)cc2c1C(=O)N(C)C2	-1%[70.6 µM]
CC(C)C[C@@H](NC(=O)C1=C[C@@H](NC(=O)Nc2ccc(OC(F)(F)F)cc2)[C@@H](O)[C@H](O)C1)C(N)=O	3%
COc1ccc(C2(CC(=O)N3CCC(Oc4ccc(F)cc4)CC3)CC(=O)N(C3CC3)C2=O)cc1 (configuration not stated)	2%
Cc1ccccc1CCN1CCC(CN(C(=O)c2ccoc2C)C2CCCC2)CC1	-3%
O=C1CCCCC(CNC(=O)c2ccc3ccccc3n2)N1 (configuration not stated)	-3%

New compounds follow:
smiles	hNpr1 antagonist
COc1ccc(-c2cc(-c3cccnc3)cn3cncc23)cc1	-18%[70.6 µM]
COc1nc(C)c(C(=O)NC2CC(c3cc(=O)[nH]c(C)n3)C2)s1 (configuration not stated)	-3%
COc1ccc(C(=O)N2CCCCCCNC(=O)CC2)cc1F	-2%
CN(CCOc1cccc(Cl)c1)C(=O)c1cccc(CCC(C)(C)O)c1	?
Cc1ccc2c(c1)N1C(=O)OC[C@@H]1CCN(C(=O)C1CCC1)C2	-1%[70.6 µM]
COCCc1nncn1C1CCN(C(=O)c2ccc(C)s2)CC1	-1%
COc1cc(-c2noc(-c3nc(-c4ccccc4)no3)n2)cc(OC)c1OC	-1%
Cc1nc(-c2ccccc2)n(Cc2nc(-c3ccc(Cl)cc3)oc2C)c(=O)c1CCO	0%

The list goes on.
smiles	hNpr1 antagonist
NC(=O)c1cc[nH]c1C1CCCN(Cc2ccc3c(c2)CCO3)C1 (configuration not stated)	2%
COCCN1C(=O)CS(=O)C12CCN(C(=O)c1ccc3cc[nH]c3c1)CC2 (configuration not stated)	3%
O[C@H]1CC[C@@H](Cc2cc(-c3ccc(F)cc3)on2)O[C@@H]1CNC1CCOCC1	-30%[70.6 µM]
COCCN(Cc1ccccc1F)Cc1cc2c(cc1OC)OCO2	7%
CN(C)C(=O)CC(O)c1cc2n(n1)CCN(C/C=C/c1ccccc1)C2 (configuration not stated)	8%
Cc1ccc(C)c(NC(=O)c2cc3cn(C4CC4)cc3s2)c1	-15%
CNC(=O)[C@@H](c1ccc(OC)cc1)N1CCC[C@H]1C(=O)NC1CCCC1	-2%[70.6 µM]
COCc1nnc2n1CCC(NC(=O)c1ccn(C)n1)CC2 (configuration not stated)	3%

The list continues:
smiles	hNpr1 antagonist
CC(=O)N[C@@H]1C=C[C@@H](c2c(C)nn(-c3ccc(C(F)(F)F)cc3)c2C)C1	?
COC[C@H]1CCCN1C(=O)C[C@@H]1O[C@H](CNS(=O)(=O)c2ccc(Cl)cc2)[C@@H](O)[C@H]1O	0%
CCCCSCc1cc(C(=O)N2CC(C)(C)C(C)(O)C2)oc1C (configuration not stated)	2%
Cc1cc2nc3n(c(=O)c2n1CC(=O)Nc1cccc(C(F)(F)F)c1)CCC3	0%
O=C1NCC2(CCN([S+](=O)([O-])c3ccccc3)CC2)Oc2ccccc21	10%
CC1=C[C@@H](CC#N)[C@H](C(C)C)C[C@H]1CC(=O)NCc1ccc(F)cc1	1%[70.6 µM]
O=C(Nc1cccc(F)c1)N1Cc2[nH]cnc2C[C@H]1c1nc(-c2ccc(F)c(Cl)c2)no1	-16%
COc1cccc(-c2cc3c(=O)n(CCNC(=O)C(C)Oc4ccccc4)ccn3n2)c1 (configuration not stated)	?

More structures.
smiles	hNpr1 antagonist
Cc1ccc(CS(=O)(=O)N2CCC(C3CCNC3)CC2)cc1C (configuration not stated)	3%
Cc1noc(C)c1-c1cc(-c2cccc(N3CCOCC3)c2)cn2cncc12	-8%[70.6 µM]
CCNC(=O)N1CCC(Cc2nncn2CC)C1 (configuration not stated)	1%
Cc1nc(-c2c3n(c(=O)n(Cc4cccc(Cl)c4)c2=O)CCCCC3)no1	0%
O=C(c1cn[nH]c1-c1ccc(F)cc1)N1CC2CC(C1)[C@H]1CCCC(=O)N1C2 (some centres not stated)	0%
COc1ccnc(N2C[C@@H]3OCC(=O)N(CC4CC4)[C@@H]3C2)n1	1%[70.6 µM]
CC(C)(C)C(=O)N1CCOC[C@H]1c1ncc(-c2ccc(OC(F)(F)F)cc2)[nH]1	-16%[70.6 µM]
COCCOC1CCN(C(=O)Cc2cccc(OC)c2)CC1	0%
Cc1ccc(-c2cc(C(=O)N3CCC4(CC(=O)NC4=O)C3)n[nH]2)o1 (configuration not stated)	-2%
Cc1cc(C(=O)N[C@@H]2CCOC[C@H]2OCC(=O)O)sc1-c1ccccc1	-1%
CN(C)C(=O)N1CCCn2nc(CNC(=O)Nc3cccc(C#N)c3)cc2C1	0%
